# PABP polyA inh: PABP poly(A) RNA binding inhibitors, primary screen, biochemical, fluorescence polarization, uHTS. 290,000 tested, 1% active. Polyadenylate-binding protein 1 (Homo sapiens), P11940. inhibition, % at 35 µM;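 active means 50% or more with normal probe brightness, or confirmed in later tests; inconclusive means above 50% with abnormal brightness, or retests that disagree; inactive means below 50% or failed in later tests; about a fifth of its hits are not listed in these tables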;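 further: calls also rest on retests at 20 µM and on dose response follow-up; controls were probe without protein and protein plus probe with vehicle; some compounds called inactive have numbers as strong as hits; many hits fall short of the cut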
# Target sequence (P11940 whole entry, looked up): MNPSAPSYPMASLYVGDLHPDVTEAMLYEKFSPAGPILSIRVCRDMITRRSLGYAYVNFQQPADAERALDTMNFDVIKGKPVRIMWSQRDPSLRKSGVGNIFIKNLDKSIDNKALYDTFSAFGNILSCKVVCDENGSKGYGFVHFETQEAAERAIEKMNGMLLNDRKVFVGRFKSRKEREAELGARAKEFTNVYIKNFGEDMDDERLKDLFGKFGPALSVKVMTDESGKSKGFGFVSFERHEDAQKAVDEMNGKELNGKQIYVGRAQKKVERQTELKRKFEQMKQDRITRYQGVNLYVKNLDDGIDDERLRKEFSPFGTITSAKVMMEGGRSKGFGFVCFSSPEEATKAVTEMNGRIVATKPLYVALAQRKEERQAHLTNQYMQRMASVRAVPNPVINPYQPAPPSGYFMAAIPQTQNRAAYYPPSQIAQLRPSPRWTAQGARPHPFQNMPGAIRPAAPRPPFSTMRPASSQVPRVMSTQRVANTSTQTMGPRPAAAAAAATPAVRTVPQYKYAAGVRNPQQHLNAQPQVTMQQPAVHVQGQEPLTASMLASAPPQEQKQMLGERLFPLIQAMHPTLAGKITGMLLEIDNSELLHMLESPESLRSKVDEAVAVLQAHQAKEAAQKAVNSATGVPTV
# eIF4H FP inh: human eIF4H binding inhibitors, primary screen, translation initiation inhibitor project, biochemical, uHTS, fluorescence polarization. Eukaryotic translation initiation factor 4H (Homo sapiens), Q15056. eIF4H fluorescence polarization binding assay. inhibition, % at 35 µM. 290,000 tested, 0.94% active;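 active means 50% or more with normal probe brightness, or confirmed in later tests; inconclusive means above 50% with abnormal brightness, or retests that disagree; inactive means below 50% or failed in later tests; about a fifth of its hits are not listed in these tables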;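 further: calls also rest on retests at 20 µM and on dose response follow-up; 0% = protein and probe with vehicle and 100% = probe without protein; strong numbers were not always called active; many hits fall short of the cut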
# MT1-MMP act inh: blockers of MT1-MMP proenzyme processing, primary screen, HT1080 RFP-PRO-GFP cells, GFP/RFP fluorescence; Matrix metalloproteinase-14 (Homo sapiens), P50281; GFP/RFP ratio fluorescence, overnight; percent of plate control window, DMSO zero; GFP/RFP ratio change, % at 20 µM; 360,000 tested, 0.061% active;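 active means GFP/RFP ratio change of at least 30% with cell ATP level not reduced by more than half and red fluorescence within 50% of control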; further: strong numbers were not always called active
#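 Material: RFP-PRO-GFP reporter HT1080 cells. Dosing: single-point 20 µM compound, 1% DMSO. Controls: DMSO and RFP-L50D-GFP cell wells. Timing: cells overnight before dosing, compound overnight, 37 °C, 5% CO2. Measure: GFP/RFP fluorescence ratio.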
# CSC inhib: cancer stem cell viability inhibitors, primary screen, luminescence; inhibition, % at 7.5 µM; 300,000 tested, 1.1% active; cancer stem cell-like cells viability;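 active means mean at 75% or more and at least half the replicates too; inconclusive means mean and replicates disagree; tested in HMLE shEcad cells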;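 further: 0% = median of negative and 100% = median of positive control wells; the first replicate is given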
# Yeast UUG start: modulators of yeast start codon fidelity, primary screen, whole organism, S. cerevisiae, single point, plate reader; 350,000 tested, 0.13% active; activity score, % at 18.7 µM; S. cerevisiae UUG-firefly luciferase reporter, luminescence/redox ratio;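 active means replicate mean at a twofold rise or more, about +100% in these data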;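 further: firefly luciferase made from a UUG start codon reports start codon fidelity; reporter light over untreated wells divided by growth signal over untreated wells; some hits fall short of that in this replicate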
# HIV Env fusion: inhibitors of HIV-1 Env-driven cell-cell fusion, primary screen, HeLa-JRFL effector, CEM21 target cells, luciferase; AID 651610, 2012; 360,000 tested, 1.1% active; inhibition, % at 12.3 µM;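 active means mean replicate inhibition score of at least 50 and every replicate individually at or above 50; inconclusive means only one of the two criteria met; inactive means mean below 50 and not all replicates reaching 50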;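 further: 0% = plate neutral controls and 100% = maraviroc near 300 nM; one replicate is shown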
# Rce1 inhib: yeast Rce1p protease inhibitors, primary screen, biochemical, fluorescence, cell-free homogeneous; CAAX prenyl protease 2 (Saccharomyces cerevisiae (strain ATCC 204508 / S288c)), Q03530; yeast membranes, quenched prenylated peptide cleavage fluorescence; calls only; 290,000 tested, 0.27% active; AID 2563, 2010;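 active means fall in fluorescence gain of 50% or more versus controls, with final raw signal at or below 3038400; inconclusive means same 50% fall but final raw signal above 3038400; inactive means fall in fluorescence gain under 50%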;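 further: plate controls were neutral control wells for no effect and wells lacking membranes for full effect; tested at 10 µM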
# eIF4H FP inh retest: recorded beside eIF4H FP inh, whose call it bears; inhibition, %; compound at 20 µM; confirmation average;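 mean of two retest wells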
# PABP polyA inh retest: second read-out of PABP polyA inh, no call of its own (marks repeat the call); inhibition, %; compound at 20 µM; confirmation repeats;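 mean of two retest wells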
# MT1-MMP act inh RFP: also measured in MT1-MMP act inh; calls as there; RFP signal change, %; measured here: RFP expression control read;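 0 = vehicle wells; hits needed this value within 50% of zero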
# The depositor's hits bear a star; i = inactive; ? = inconclusive; / = no result given.
SMILES,PABP polyA inh,eIF4H FP inh,MT1-MMP act inh,MT1-MMP act inh RFP,CSC inhib,Yeast UUG start,HIV Env fusion,Rce1 inhib,others
COc1cccc(-c2nc(CS(=O)CC(=O)NCCc3ccccc3)c(C)o2)c1 (stereo unspecified),8.6,-2.9,1.5,2.3,-18.0,0.4,-4.0,i,
CN(C)c1ccc(C(=O)NCc2ccc3c(c2)CCO3)cc1,-8.2,-2.6,-0.1,0.8,-8.4,4.4,-1.4,i,
CN(C)N1C(N)=C(C#N)C(c2ccc3c(c2)OCO3)C2=C1CCCC2=O (stereo unspecified),15.9,18.5,-3.5,1.8,-3.1,9.2,11.3,i,
O=C(CN1C(=O)NC2(CCCC2)C1=O)N1CCN(S(=O)(=O)c2ccccc2F)CC1,0.9,0.3,-3.1,-1.0,-12.0,-27.0,-11.6,i,
Nn1c(SCc2cccc(F)c2)nnc1-c1ccncc1,10.7,-3.1,-1.4,0.4,-3.6,-15.2,11.7,i,
COC(=O)[C@H](CCSC)NC(=O)NCc1ccccc1F,-3.7,-6.1,6.4,6.8,-6.5,-6.1,-66.4,i,
O=C(Nc1nc2ccccc2[nH]1)C1CCN(S(=O)(=O)c2cccs2)CC1,1.4,-9.2,1.7,-17.5,-1.2,10.5,/,i,
O/N=C/c1cccc[n+]1CCCCCC[n+]1ccccc1/C=N/O,4.8,-10.0,-0.7,1.4,-14.8,-21.4,-2.3,i,
CCc1cccc(NC(=O)Cn2c(=O)c3cccn3c3ccccc32)c1,-1.9,-2.1,1.1,0.1,-4.4,-17.8,6.0,i,
O=C(COc1ccccc1Cl)NNC(=O)Cn1[nH]c(=O)c2ccccc2c1=O,/,/,-2.6,2.0,/,-3.8,6.2,/,
COc1ccc(C)cc1Nc1nnc(C)c(=O)[nH]1,-15.2,-12.5,-0.4,0.6,-12.5,/,10.9,i,
Cc1cn(COC/C=C/c2ccccc2)c(=O)[nH]c1=O,1.8,-0.5,-0.6,-1.0,1.0,-13.8,/,i,
CCN(CC)C(=O)[C@H]1C[C@H](CC(=O)NCC23CC4CC(CC(C4)C2)C3)C(=O)N2CCc3c([nH]c4cc(CCC(=O)N(C)C)ccc34)[C@]12C,/,/,0.6,-0.7,/,22.1,16.8,/,
Cc1cc(C)c(NC(=O)C2CCCN2CCC(C)C)c(C)c1 (stereo unspecified),11.5,2.4,-4.0,-2.9,-9.3,6.5,-55.6,i,
CCN(CC)c1ccc(S(=O)(=O)N2CCOCC2)cc1NC(=O)COC(=O)COc1ccccc1C,6.2,-7.4,-1.3,-3.5,/,-12.3,21.6,i,
COc1ccc(C(CC(=O)c2ccccc2)S(=O)(=O)c2ccc(C)cc2)cc1 (stereo unspecified),-13.1,-6.1,-3.6,3.5,-0.1,/,/,i,
Cc1ccc(NC(=O)c2cc(Cl)ccc2[N+](=O)[O-])cc1C,3.8,-4.3,-32.7,-11.7,-4.7,/,-14.1,i,
COc1ccc(CN2CCN(CCC(C)C)C(CCO)C2)cc1Cn1cccn1 (stereo unspecified),0.8,2.9,7.4,3.5,-2.5,/,0.2,/,
CN1CCN(C(=O)c2cc3cc(F)ccc3[nH]2)CC1,-3.7,2.7,5.4,8.0,-11.1,-16.6,-84.7,i,
COc1cccc(-c2cc(C(=O)N3CCN(c4ccc(F)cc4)CC3)no2)c1,23.8,-3.1,0.5,2.0,-17.1,-27.8,-4.0,/,
Cc1cc(Br)c2[nH]cc(CCNC(=O)c3ccco3)c2c1,7.0,57.2,-0.4,-4.4,-8.8,8.1,-4.1,i,eIF4H FP inh retest=-2.3;PABP polyA inh retest=2.7
COc1ccc(C2(c3ccc(OC)cc3)NC(=O)N(CC(=O)Nc3ccc(C(=O)N(C)C)cc3)C2=O)cc1,4.7,4.3,-1.5,-0.6,-6.2,-3.5,/,i,
O=C(OCCN1C(=O)c2cccc3c(N4CCOCC4)ccc(c23)C1=O)c1cccc(Cl)c1,-6.2,?,/,/,6.1,/,/,i,
COc1ccc(F)cc1C(=O)C1CCCN(Cc2c(C)n(C)n(-c3ccccc3)c2=O)C1 (stereo unspecified),-5.4,-12.0,-3.4,-2.2,-5.6,-0.6,2.0,i,
COc1cccc(C(=O)c2cn(CC(=O)NCc3ccco3)c3nc(C)ccc3c2=O)c1,4.2,20.5,0.6,3.9,-6.2,-14.0,-11.3,i,
COC(=O)c1ccc(NC(=O)CCn2cccc2)cc1,-8.8,-6.2,2.5,3.3,-7.9,1.8,/,i,
CN1C/C(=C/c2cccs2)C(=O)/C(=C\c2cccs2)C1,6.7,15.8,4.0,4.6,/,-1.2,-17.7,i,
Cc1ccc(S(=O)(=O)C2(C(=O)N3CCCC(C)C3)CC2)cc1 (stereo unspecified),17.0,7.1,0.3,0.2,-1.6,-6.0,/,i,
O=C(CNC(=O)c1ccco1)OCc1ccc(C(=O)c2ccccc2)cc1,-6.4,-1.0,-5.9,-1.3,17.9,/,8.9,i,
CC(=O)c1cccc(N(C(=O)c2ccco2)C(C(=O)NC2CCCC2)c2ccc(N3CCOCC3)cc2)c1 (stereo unspecified),-6.8,-4.8,-0.4,1.6,-5.1,/,0.5,i,
CC1(C)CC(CC(=O)Nc2ccc([N+](=O)[O-])cc2)C(=O)O1 (stereo unspecified),5.1,-2.9,4.0,6.2,/,-10.7,/,i,
O=C(CCCn1c(=O)oc2ccccc21)N1CCc2ccccc2C1,1.8,-10.2,-4.2,1.8,-23.1,2.0,-11.0,i,
CCOC(=O)c1ccc(N2C(=O)C(O)=C(C(C)=O)C2c2ccc(O)c(OC)c2)cc1 (stereo unspecified),12.9,-12.3,3.4,7.1,2.4,-8.7,/,i,
Cc1cccc(C)c1NC(=O)CN(c1ccccn1)S(=O)(=O)c1ccc(F)cc1,-1.0,-19.9,-3.0,1.0,7.7,/,-11.2,i,
Cc1cc(C)nc(/N=C2\NC(=O)CC(C(=O)O)N2CCc2c[nH]c3ccccc23)n1 (stereo unspecified),-1.4,0.2,4.9,1.8,-3.9,-7.9,18.2,i,
Cc1c(C(=O)Nc2ccc(F)cc2)sc2ncn(CC(=O)N3CCCCC3)c(=O)c12,-2.7,-7.1,2.1,-1.0,-10.0,-17.0,-2.6,i,
COc1ccccc1CNC(=O)C1CCN(C(=O)NC2CCCCC2)CC1,1.6,-1.0,3.6,9.1,-7.2,/,11.6,i,
CCCC1(C(=O)O)NC(c2ccccc2O)C2C(=O)N(Cc3ccccc3)C(=O)C21 (stereo unspecified),9.4,-7.2,-3.5,2.3,-6.9,-10.6,-2.5,i,
O=C(NCc1nnnn1-c1ccc(F)cc1)C1CC(=O)N(c2ccc(F)cc2)C1 (stereo unspecified),/,/,-2.2,2.4,-6.8,-7.0,-8.6,i,
CNC(=O)C1CC(=O)N(CCc2ccc(OC)c(OC)c2)C(=Nc2ccc(F)cc2)S1 (stereo unspecified),0.9,0.7,1.8,-0.6,-8.1,-2.7,0.4,i,
CCOc1ccc(CN2CCN(Cc3ccc4cc(F)ccc4n3)CC2CCO)cc1 (stereo unspecified),5.0,4.5,-2.2,-4.6,-1.0,-14.7,12.6,i,
CCOC(=O)C1CC(c2ccc(Cl)cc2)=NNC1=O (stereo unspecified),6.0,-3.7,0.6,1.3,-6.3,/,?,i,
CC(NCC(=O)Nc1cc(S(=O)(=O)N2CCCCCC2)ccc1Cl)c1ccccc1 (stereo unspecified),0.7,-6.7,-9.2,-18.9,-9.5,8.4,30.6,i,
COc1cccc(C(=O)COc2ccccc2-c2ccccc2)c1,-15.2,-4.3,-1.3,-3.8,9.8,-25.1,16.4,i,
COCCNc1nc(Nc2ccc(C)cc2C)c2sc(-c3ccccc3)cc2n1,/,/,-3.5,-7.4,/,3.7,7.3,/,
O=C(c1ccc(S(=O)(=O)N2CCCCCC2)cc1)N1CCN(Cc2ccccc2)CC1,/,/,2.6,-11.1,/,-12.0,-15.3,/,
Cc1ccc(Oc2cc(NC(=O)CCCn3nc([N+](=O)[O-])c(Cl)c3C)cc([N+](=O)[O-])c2)cc1,15.6,-6.4,1.1,-9.5,-1.9,/,23.3,i,
CC1(C)Cc2c(c(N3CCOCC3)nc3sc(C(N)=O)c(N)c23)CO1,12.6,11.5,3.5,0.9,-13.1,/,4.9,i,
O=c1c2[nH]c3ccc(F)cc3c2ncn1Cc1ccncc1,3.2,-1.2,8.9,-5.5,3.6,-10.6,8.8,i,
COc1ccc(/C=C2\SC(=O)N(CCCC(=O)Nc3ccc(C(=O)O)cc3)C2=O)cc1OC,-1.1,-2.6,-1.3,2.8,-7.0,-23.1,1.4,i,
COc1ccc(OCc2cc(C(=O)N3CCSCC3)no2)c(Cl)c1,7.2,0.8,-3.1,1.2,3.6,-14.6,-31.1,i,
O=C(N/N=C/c1cccc(O)c1)c1ccc(NC(=O)c2cccc([N+](=O)[O-])c2)cc1,32.2,-7.2,3.5,-2.3,13.5,/,4.2,i,
CC(C)[C@@H]1COC(c2cccc(C3=N[C@H](C(C)C)CO3)n2)=N1,13.4,7.7,0.1,-0.9,5.3,-32.9,-23.1,i,
CCOc1ccc(N(C(=O)c2snc(C(N)=O)c2N)C(CC)C(=O)NC2CCCC2)cc1 (stereo unspecified),-7.6,-6.0,-0.9,-2.1,/,-11.3,6.8,i,
COc1ccccc1Cn1c(C)nnc1-c1cnn(C)c1N,1.1,-7.4,-0.9,2.0,12.6,/,11.6,i,
CCCN1CCN(C(=O)C(C)n2nc(C)c3sc4ccccc4c3c2=O)CC1 (stereo unspecified),-6.5,-6.4,1.4,3.1,-7.7,-10.5,-2.0,i,
CC(C)c1ccc(OCc2ccc(C(=O)O)o2)cc1,14.0,14.9,3.0,3.8,5.1,0.7,-27.3,i,
COc1cc(/C=C\C(=O)Nc2cc(=O)n(C)c(=O)n2C)cc(OC)c1OC,-2.1,-6.3,5.6,1.5,-9.5,/,2.8,i,

# As a short view, part of the list above.
SMILES,PABP polyA inh,eIF4H FP inh,MT1-MMP act inh,MT1-MMP act inh RFP,CSC inhib,Yeast UUG start,HIV Env fusion,Rce1 inhib,others
CCOc1ccc(CN2CCN(Cc3ccc4cc(F)ccc4n3)CC2CCO)cc1 (stereo unspecified),5.0,4.5,-2.2,-4.6,-1.0,-14.7,12.6,i,
CCOC(=O)C1CC(c2ccc(Cl)cc2)=NNC1=O (stereo unspecified),6.0,-3.7,0.6,1.3,-6.3,/,?,i,
CC(NCC(=O)Nc1cc(S(=O)(=O)N2CCCCCC2)ccc1Cl)c1ccccc1 (stereo unspecified),0.7,-6.7,-9.2,-18.9,-9.5,8.4,30.6,i,
COc1cccc(C(=O)COc2ccccc2-c2ccccc2)c1,-15.2,-4.3,-1.3,-3.8,9.8,-25.1,16.4,i,

# Assay outcomes (PubChem BioAssay)
